MLL AF4-AF9 inh: blocks AF4 peptide binding to human AF9. 0.47% of 350,000 active. inhibition, % at 10 µM. P42568. AlphaScreen, biotin-AF4 peptide binding to FLAG-AF9;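 active = every replicate reaching a set inhibition limit, whatever the replicate mean, cut at about 25% in these data; inconclusive = mean inhibition reaches that limit but some replicates miss it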;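 also: 0% = plate neutral control median and 100% = total signal loss; the record names both 10 and 1 µM as test concentration; the first replicate is given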
Target sequence (P42568 whole entry, looked up): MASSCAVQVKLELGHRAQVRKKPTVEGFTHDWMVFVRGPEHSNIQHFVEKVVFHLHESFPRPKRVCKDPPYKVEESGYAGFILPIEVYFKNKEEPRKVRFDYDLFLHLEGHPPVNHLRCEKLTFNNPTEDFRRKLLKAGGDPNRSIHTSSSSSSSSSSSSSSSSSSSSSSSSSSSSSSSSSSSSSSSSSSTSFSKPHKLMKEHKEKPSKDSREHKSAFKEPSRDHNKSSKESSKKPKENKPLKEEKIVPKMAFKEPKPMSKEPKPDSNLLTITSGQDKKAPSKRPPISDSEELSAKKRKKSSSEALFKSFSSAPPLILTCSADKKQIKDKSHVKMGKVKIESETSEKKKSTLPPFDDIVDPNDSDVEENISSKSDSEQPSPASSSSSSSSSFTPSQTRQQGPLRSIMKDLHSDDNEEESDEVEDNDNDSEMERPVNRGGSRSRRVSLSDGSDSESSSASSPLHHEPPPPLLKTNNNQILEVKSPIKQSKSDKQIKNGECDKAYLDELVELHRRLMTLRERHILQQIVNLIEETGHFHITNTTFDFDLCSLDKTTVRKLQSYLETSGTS
Vif TR-FRET: inhibitors of Vif binding to APOBEC3G peptide, primary screen, biochemical, TR-FRET, GST-Vif 1-94, biotin-A3G peptide, dose response retest (AID 1117319); TR-FRET GST-Vif / biotin-A3G peptide binding; higher % means a stronger effect; test concentration not given here; strong numbers were not always called active; inhibition, %; hits with a dose series show IC50 in µM; 0.57% of 260,000 active;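 active = above the screen mean plus three standard deviations and confirmed in dose response; inconclusive = results disagree or hit not tested in dose response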;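 also: Vif residues 1-94 fused to GST binding biotinylated APOBEC3G peptide 110-148; 0% = full assay without inhibitor and 100% = GST in place of GST-Vif; retest series ran down from 100 µM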
Ecoli rRNA inh: inhibits bacterial ribosomal RNA function over humanized ribosomes; E. coli WT GFP vs humanized-ribosome RFP mutants, fluorescence, 24 h; stronger effect = lower value; DMSO median 0, no signal -100; GFP signal change (wild-type ribosome), % (no concentration beside the values); 1.6% of 350,000 active;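 active = significant combined selectivity score with lowered wild-type GFP, culture density cut under 30%, mutant RFP and density less affected; inactive = any of these conditions unmet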; also: one replicate is shown; some compounds called inactive have numbers as strong as hits
T cruzi repl: T. cruzi replication inhibition | T. cruzi beta-gal in NIH3T3, luminescence, 90 h | 1.4% of 300,000 active | inhibition, % (no concentration beside the values);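 active = mean inhibition across valid replicates above about 55%, limit read from the data; inconclusive = mean below that limit but half or more replicates reach it; inactive = mean below it, under half of replicates reach it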;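 also: signal also drops with host cell toxicity which is not excluded here; 0% = plate median of DMSO wells and 100% = zero luminescence signal; higher percent means less beta-gal luminescence so fewer parasites; stock transfer was 50 nL into about 50 µL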
RanGTP-Imp inh: disruptors of Ran-importin-beta complex formation – biochemical, FRET, CFP-Ran, YFP-importin-beta, homogeneous, primary screen; cell-free CFP-Ran/YFP-importin-beta FRET ratio; inhibition, % (no concentration beside the values); 1.1% of 300,000 active;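 active = most replicates above 15%; inconclusive = exactly half above 15%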;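 also: 0% = DMSO wells and 100% = Ran loaded with GDP instead of GTP; wells of about 40 µL received 100 nL stock; the first replicate is given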
Beta cell apopt: beta cell apoptosis inhibition; 0.8% of 300,000 active; protection from apoptosis, % (test concentration not listed); AID 435005; INS-1E cytokine-induced death, ATP luminescence, 48 h; percent of positive-control rescue, neutral wells zero;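 active = all replicates at 75% or more, or half of them and the mean; inconclusive = half reach 75% but not the mean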;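 also: 0% = cytokine-treated negative control wells and 100% = positive control rescue; higher means more ATP so stronger rescue from cytokine killing; wells of about 40 µL received 100 nL stock; the first replicate is given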
A1 inh: inhibitors of the anti-apoptotic protein A1, read as caspase activation; MEF A1-2A-BIM cells, Caspase-Glo 3/7 luminescence, 3 h; percent of clofoctol response, vehicle zero; caspase activation, % (no concentration beside the values); 0.066% of 330,000 active; AID 2462;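 active = over half of replicate activation scores above 10%, or exactly half above 10 with the replicate mean above 10; inconclusive = replicate mean below 10 yet half the replicates above 10; inactive = over half of replicates below 10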;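 also: wells of about 30 µL received 50 nL stock; many hits fall short of the cut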
Calb FLC: affects C. albicans growth with fluconazole; C. albicans CaCi-2 (fluconazole-resistant clinical isolate) + fluconazole, Alamar Blue growth, 48 h; growth inhibition, % (test concentration not listed); 0.57% of 300,000 active;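 active = most replicates above 75%; inconclusive = exactly half above 75%; inactive = most below 75%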;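 also: all wells also contain fluconazole at 8 µg/ml as a sub-toxic cotreatment; 0% = median of DMSO wells and 100% = median of geldanamycin control wells; wells of about 8 µL received 7.5 nL stock; the first replicate is given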
Ecoli rRNA inh OD600: second read-out of Ecoli rRNA inh, no call of its own (marks repeat the call); OD600 change, %; measured here: OD600 growth;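 optical density of the mix in the first replicate; 0 = DMSO median and -100 = no signal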
Ecoli rRNA inh RFP: also measured in Ecoli rRNA inh; calls as there; RFP signal change, %; measured here: RFP humanized mutant strains;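 first replicate; 0 = DMSO median and -100 = no signal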
Numbers without * were called inactive; ? = inconclusive; nt = no result given. Not all compounds are listed; the hit share may differ from the screen's.

SMILES	MLL AF4-AF9 inh	Vif TR-FRET	Ecoli rRNA inh	Ecoli rRNA inh OD600	Ecoli rRNA inh RFP	T cruzi repl	RanGTP-Imp inh	Beta cell apopt	A1 inh	Calb FLC
CCN(CC(=O)NCc1cccs1)C(=O)/C=C/c1ccc(OC)cc1OC	0.0	2%	-5	-3	0.9	5	-0.5	-4	0.4	1
COc1ccccc1/C=N/Nc1cc(C)nc2ccc(C)cc12	5.3	nt	-14	-13	-6.4	4	1.2	-1	0.2	1
CCOC(=O)N1CCN(Cc2nc(N)nc(Nc3ccc(C)cc3C)n2)CC1	-2.2	-4%	-4	-3	2.1	nt	nt	-4	-0.3	1
CC(C)CCNC(=O)C1CCCCN1S(=O)(=O)c1ccc(F)cc1 (stereo unspecified)	2.0	0%	-5	4	-1.4	-10	-0.3	1	-0.3	?
O=C(CCCCC(=O)Nc1ccc(F)cc1)Nc1ccc(F)cc1	-4.7	nt	16	13	1.8	-13	1.9	4	0.2	1
CC(C)(C)OC(=O)NCCOC(=O)c1[nH]cnc1C(=O)NCc1ccccc1	-14	nt	3	2	-1.6	nt	nt	-3	0.2	nt
Cc1ccc(O)c(Sc2cc(C)ccc2O)c1	nt	4%	nt	nt	nt	14	-1.3	nt	-0.9	-31
CCOC(=O)c1cc(S(=O)(=O)NC2CCN(C(=O)OCC)CC2)cn1C	nt	10%	nt	nt	nt	-5	4.1	-2	0.0	-7
CCN(CCN(C)C)C(=O)Cn1ncc2c1-c1cc(C)ccc1OC2	1.2	-4%	8	19	-0.4	9	2.8	-4	0.1	-2
COc1ccc(CNCCC(c2ccccc2)c2ccc(OC(C)C)cc2)cc1OC (stereo unspecified)	15	-9%	-29	-67	14	26	?	42	0.0	18
COCCNC(=O)C(c1ccc(C)cc1)N(C(=O)CCC(=O)Nc1ccccn1)c1ccccc1C (stereo unspecified)	-1.7	nt	6	13	1.5	16	7.5	0	-0.6	-12
Cn1c(=O)c(C(=O)Nc2ncccn2)c(O)c2ccccc21	nt	0%	nt	nt	nt	-22	4.4	-3	0.5	2
COC(=O)CCC(=O)OC1(C)C(=O)C=C2C=C(C3CC3)N(CC3CC3)C=C2C1=O (stereo unspecified)	-2.6	nt	6	-1	2.4	6	6.7	-10	0.0	3
CCc1nnc(/N=C/c2c(O)n(-c3ccc(Cl)cn3)c(=O)c3ccccc23)s1	nt	nt	nt	nt	nt	-11	-1.0	-4	-0.9	4
COCCN(Cc1cc2cccc(C)c2n2nnnc12)C(=O)C(F)(F)F	nt	3%	nt	nt	nt	10	?	2	-1.0	-3
CC1(NS(=O)(=O)c2ccc(Cl)s2)CCS(=O)(=O)C1 (stereo unspecified)	-4.2	0%	8	18	-0.8	nt	nt	-7	0.8	nt
CC(=O)N1c2ccccc2S(=O)(=O)c2ccccc21	nt	nt	0	1	-2.8	-15	0.3	-1	-0.4	3
COC(=O)CN1C(=O)[C@H]2[C@@H](c3ccc(C)o3)N3C(=O)CN(CCO)C(=O)[C@@]3(C)[C@H]2C1=O	-2.4	nt	nt	nt	nt	-10	-2.5	-1	1.1	-7
Cc1nn(CC(=O)OCC(=O)Nc2cccc(S(N)(=O)=O)c2)c(C)c1[N+](=O)[O-]	3.9	nt	8	15	0.5	nt	nt	0	1.1	nt
CCOc1ncccc1C(=O)Nc1ccccc1F	-7.4	nt	2	1	-2.1	-4	2.9	3	-0.5	6
CC(=O)Oc1ccccc1C(=O)Nc1ccccc1	-4.5	nt	4	4	-1.8	-16	-1.6	-6	-0.4	-2
CC1Cc2nc(SCC(=O)c3ccccc3)n(Cc3ccccc3)c(=O)c2S1 (stereo unspecified)	8.4	1%	2	-13	-14	22	-3.0	7	0.1	4
COc1cc(C2CC(c3cccnc3)=NN2c2ccc(F)cc2)cc(OC)c1OC (stereo unspecified)	-59	-7%	-21	-34	-8.6	24	nt	0	-0.1	nt
CCc1cc(-c2nc(N)ncc2-c2ccc(Br)cc2)c(O)cc1OC	0.1	-8%	5	1	-0.4	33	-2.7	7	0.8	8
NS(=O)(=O)c1ccc(NC(=O)COC(=O)COc2ccc(Br)cc2)cc1	11	9%	9	4	-5.6	-5	-3.2	nt	nt	-6
CC1CCN(C(=O)C2CCCCN2S(=O)(=O)c2cccc([N+](=O)[O-])c2)CC1 (stereo unspecified)	6.2	-6%	0	-6	-1.0	9	0.1	-2	-0.5	44
CCOc1ccccc1/C=C/c1onc(C)c1S(=O)(=O)N1CCC(C(=O)N2CCCCCC2)CC1	6.2	-3%	-1	-13	1.8	28	-2.7	18	-2.2	4
CC(=O)c1c(N2CCN(Cc3ccccc3)CC2)[nH]c(-c2ccccc2)nc1=S	nt	-20%	nt	nt	nt	9	5.0	1	-0.6	5
Cc1onc(-c2c(Cl)cccc2Cl)c1C(=O)N/N=C(\N)COc1ccc(Cl)cc1	nt	25%	nt	nt	nt	41	2.4	91*	-0.3	93*
CCSc1nnc(-c2ccc(C)cc2)c2ccccc12	2.8	8%	-55	-80	-28	-2	3.0	4	0.8	93*
COc1ccc(Cl)cc1NC(=O)CN(C)C(=O)C1CC(=O)N(Cc2ccc(C)cc2)C1 (stereo unspecified)	3.3	4%	-10	-13	3.2	-6	3.6	-9	-0.4	15
O=C1C2(CCC13COC(c1ccc(O)cc1)OC3)COC(c1ccc(O)cc1)OC2 (stereo unspecified)	nt	11%	nt	nt	nt	8	5.6	-2	-0.2	?
O=C(c1cccc(C(F)(F)F)c1)N1CCOC12CCN(c1ncc(C(F)(F)F)cc1Cl)CC2	nt	22%	nt	nt	nt	52	-2.8	7	0.0	1
CCOC(=O)c1c(N)sc(C(=O)N2CCCCC2)c1C	nt	2%	nt	nt	nt	0	-0.9	-3	0.4	-2
CC(C)c1ccc(/C=N/NC(=O)c2ccccc2Cl)cc1	6.8	4%	0	-1	2.1	27	-0.4	22	0.6	-2
CCC(=O)Nc1ccccc1Nc1cc(C#N)c(C#N)cc1[N+](=O)[O-]	nt	10%	nt	nt	nt	5	-5.9	12	-0.5	0
COC(=O)/C=C/C(=O)N1CCN(c2ccccc2C)CC1	4.9	nt	-4	-2	-4.7	-16	-3.3	-7	0.5	2
O=C(Nc1ccccc1N1CCN(c2ccc(F)cc2)CC1)C12CC3CC(CC(C3)C1)C2	nt	-3%	nt	nt	nt	34	-2.5	10	0.6	-16
CCCCn1c(=O)c2c(nc3n2CCCN3Cc2ccccc2)n(C)c1=O	3.8	nt	2	-2	1.9	15	-3.0	nt	nt	3
COC(=O)CCCCCCCCC(O)C[N+]1(C)CCOCC1 (stereo unspecified)	-1.7	18%	10	4	0.3	-26	1.7	-4	0.6	-3
Cc1ccc(S(=O)(=O)NC(C)C(=O)Nc2ccccc2C(=O)N2CCCC2)cc1 (stereo unspecified)	nt	-1%	nt	nt	nt	-4	-2.9	2	0.4	-4
CCN(CC)S(=O)(=O)c1cccc(NC(=O)Nc2cccc(C(F)(F)F)c2)c1	nt	25%	nt	nt	nt	42	-3.1	112*	0.3	-5
COc1cc(CN2CC(=O)N(c3cccc(Cl)c3C)C2=S)cc(OC)c1OC	1.3	1%	-4	-1	0.9	1	3.1	4	0.3	9
COc1ccc(N(CC(=O)NCCSC2CCCCC2)S(=O)(=O)c2ccccc2)c(OC)c1	-19	10%	-11	-5	0.2	18	4.8	nt	0.1	-9
CC(C)CC(=O)NNC(=O)C(C)C	-5.8	3%	10	9	1.9	-3	2.6	3	0.6	-8
COc1ccc(Cn2c(C3CC3)nc3ccc(NC(C)=O)cc3c2=O)cc1	nt	0%	nt	nt	nt	15	7.2	-7	-0.9	29
Cc1[nH]c2ccccc2c1/C=C/c1nc2ccccc2c(=O)[nH]1	-2.7	nt	6	8	3.7	30	34*	0	-0.6	-19
CCOc1ncccc1C(=O)N1CCN(S(=O)(=O)c2ccc3c(c2)OCCO3)CC1	-1.3	nt	-1	4	-1.6	nt	nt	-1	-1.2	nt
COc1ccc(C(=O)O)cc1S(=O)(=O)NCc1cccnc1	-2.6	-3%	8	10	-1.2	7	2.3	-4	0.3	3
CC(=O)Nc1nc(C(=O)Nc2c(C)n[nH]c2C)cs1	nt	2%	nt	nt	nt	-16	-0.4	-7	0.3	-5
CC(=O)NS(=O)(=O)c1ccc(NC(=O)/C=C/c2ccccc2)cc1	-0.4	nt	-2	14	1.4	-24	0.4	nt	-0.5	2
COc1ccccc1NC(=O)CSC(N)=O	nt	10%	nt	nt	nt	-8	7.4	-4	0.5	-6
COc1ccc(/C=C2\C(=O)NC(=S)N2C(=O)c2ccc(F)cc2)cc1	nt	3%	nt	nt	nt	-4	4.1	-5	0.0	-3
O=C(NC1CCCN(Cc2ccc(Cl)cc2)C1)c1c(F)cccc1F (stereo unspecified)	-2.9	nt	1	5	-5.1	46	2.3	nt	0.5	3
CCN(CC)S(=O)(=O)c1cccc(C(=O)Nc2nnc(C)s2)c1	-11	nt	nt	nt	nt	0	?	nt	0.2	17
CC(=O)CCC(=O)NC1CCCc2c1cnn2-c1ccc(C(C)(C)C)cc1 (stereo unspecified)	-1.2	nt	-5	-1	-4.3	-6	?	9	0.3	3
Cc1cc2n(n1)C(c1ccco1)Nc1ccccc1-2 (stereo unspecified)	nt	4%	nt	nt	nt	-22	1.6	nt	0.0	11
CC(C)(C)c1csc(NC(=O)c2ccccc2O)n1	0.0	-12%	-55	-80	-17	-8	2.9	12	-1.5	32
O=C(Nc1ccc(F)cc1)NC1(C(=O)NCc2ccc3c(c2)OCO3)CCCCC1	nt	2%	nt	nt	nt	-3	-1.8	-2	0.5	17
CCCCn1nnc(N(C(=O)c2cccs2)C(=O)c2cccs2)n1	-4.3	8%	6	5	-1.1	-6	-2.2	nt	nt	-2

The listing continues:
SMILES	MLL AF4-AF9 inh	Vif TR-FRET	Ecoli rRNA inh	Ecoli rRNA inh OD600	Ecoli rRNA inh RFP	T cruzi repl	RanGTP-Imp inh	Beta cell apopt	A1 inh	Calb FLC
CCN1CCN(c2ccc(S(=O)(=O)N3CCCCC3)cc2NC(=O)c2cccc(Cl)c2)CC1	12	-1%	-1	-10	2.1	45	-1.7	6	0.6	2
Cc1ncc2c(n1)-c1cc(F)ccc1SC2	-0.2	-2%	0	-6	-0.5	?	8.2	-6	0.0	5
CC(C)(C)NCC(O)COCc1ccc(Cl)cc1 (stereo unspecified)	nt	3%	nt	nt	nt	-12	2.1	-3	-0.5	-6
OC(C#CCCN1CCCCC1)(c1ccccc1)C1CCCCC1 (stereo unspecified)	-0.5	nt	6	-7	0.8	-16	4.0	2	0.2	-5
COC(=O)c1ccc(NC(=O)Nc2ccc3c(c2)OCO3)cc1	-1.4	nt	0	10	3.4	11	-1.0	-2	-0.1	5
CCOc1ccc(C(=O)NC2CCN(S(=O)(=O)c3ccccc3)CC2)cc1	-1.4	nt	22	11	4.6	2	-0.6	-6	-0.8	12
